# VACV Venus inh: qHTS for Stage-Specific Inhibitors of Vaccinia Orthopoxvirus: Venus Reporter Primary qHTS | Vaccinia virus Venus reporter expression, fluorescence | 0.46% of 330,000 active | Potency, µM (series often up to 36.5 µM), for inactives: top-dose activity change, negative = inhibition, usual class: inhibitors; active means well fitted inhibition curve with a large enough effect; inconclusive means small, poorly fitted or top-dose-only effect; inactive means no such curve, though single readings can be large or run the other way; tested in A549 cells; further: nearly all actives have a fitted effect of over 30% in size; inactives centre near -10
# Vaccinia mCherry: qHTS for Stage-Specific Inhibitors of Vaccinia Orthopoxvirus: mCherry Reporter Primary qHTS | 0.63% of 310,000 active | AID 720579, 2013 | Vaccinia virus mCherry reporter infection, fluorescence; about a quarter of the inactives have no number | Potency, µM (doses to about 36.5 µM), for the others: top-dose activity change, negative = inhibition, most hits filed as inhibitors; active = well fitted inhibition curve with a large enough effect; inconclusive = small, poorly fitted or top-dose-only effect; inactive = no such curve, though single readings can be large or run the other way; tested in A549 cells; further: nearly all actives have a fitted effect of over 35% in size; inactives centre near -10
# An asterisk follows results filed as active; i = inactive; ? = inconclusive; · = no result given; & = joins results of further samples; [ ] = remark or other dose. On the % scale 0 is the no-effect control and ±100 the full control effect; potency means the concentration at half of the fitted maximal effect.
# The first two records, ahead of the listing:
Compound	VACV Venus inh	Vaccinia mCherry
Cc1ccc(N(C)C(=O)c2cnc(N3CCOCC3)c3ccccc23)cc1C	-6.6%	-4.9%
Cc1[nH]c2ccccc2c1C(c1ccncc1)N1CCC(C)CC1 (configuration not stated)	1.9%	-1.0%

# This part in full, previewed entries included:
Compound	VACV Venus inh	Vaccinia mCherry
Cc1ccc(N(C)C(=O)c2cnc(N3CCOCC3)c3ccccc23)cc1C	-6.6%	-4.9%
Cc1[nH]c2ccccc2c1C(c1ccncc1)N1CCC(C)CC1 (configuration not stated)	1.9%	-1.0%
CC1CCCCC1NC(=S)Nc1ccc(Cl)cc1Cl (configuration not stated)	-14.4%	-19.2%
COc1cccc(NC(=O)CCc2nnc3n(Cc4ccccc4Cl)c(=O)c4ccccc4n23)c1	-26.5%	-25.3%
CCOc1ccc2ccccc2c1CNc1nnnn1CC	-7.2%	-6.9%
Cc1ccc(CN2COc3cc(C)c4c(oc(=O)c5ccccc54)c3C2)cc1	-10.3%	0.1%
CC(=O)CSc1ncnc2sc3c(c12)CCCC3	-17.4%	-15.2%
Cc1cccc(NC(=O)C2CCN(S(=O)(=O)c3c(C)noc3/C=C/c3ccco3)CC2)n1	-25.4%	i
Cc1onc(-c2ccccc2)c1C(=O)OCC(=O)c1ccc[nH]1	-14.9%	i
O=C(NNC(=O)c1ccccc1-n1cccc1)c1ccc(Cl)cc1Cl	-13.8%	·
C=C(C)C1CC=C(CO)CC1 (configuration not stated)	?	-20.1%
Cc1ccccc1CSCC1Nc2ccc(C(=O)NCCc3ccccc3)cc2NC1=O (configuration not stated)	29.2%	-1.3%
C/C(=N/Nc1ccnc2cc(Cl)ccc12)c1ccc(O)cc1	?	?
C[C@@H]1[C@H](O)C[C@@]23COC(=O)C2=CCCC3[C@@]1(C)CCC1COC(=O)C1 (some centres not stated)	-12.2%	5.7%
CCc1ccccc1NCC(=O)Nc1ccc(Cl)c(C(F)(F)F)c1	?	?
CC1(C(=O)NCc2cccc3ccccc23)CCN1C(=O)Cc1ccc(-c2ccccc2)cc1 (configuration not stated)	-16.7%	9.7%
O=C(NCCN1CCOCC1)c1ccc(Cl)c(S(=O)(=O)N2CCOCC2)c1	-8.1%	-13.6%
Cc1ccc(S(=O)(=O)NC2CCCCC2)cc1	-11.2%	i
CCOC(=O)CN1C(=O)C(Sc2n[nH]c(-c3ccccc3)n2)CCc2ccccc21 (configuration not stated)	-21.4%	-25.6%
Cc1ccc(C)c(NC2=CC(=O)CC(C)(C)C2)c1C#N	-0.2%	-7.5%
O=C(Nc1cccc(Cl)c1)Nc1nc(-c2ccc(Cl)cc2)cs1	?	-10.2%[1.46 µM]
O=C(CN1C(=O)S/C(=C/c2cccs2)C1=O)N1CCCC1	3.2%	-13.2%
Cc1c(NC(=O)Nc2ccc([N+](=O)[O-])cc2)c(=O)n(-c2ccccc2)n1C	-4.1%	i
O=[N+]([O-])c1ccc(CNc2cccc(F)c2)s1	-9.2%	-19.0%
COC(=O)[C@@]12CCCCN1[C@H](c1ccc(SC3CCCCC3)cc1)[C@H]1C(=O)N(C)C(=O)[C@H]12	-18.9%	-10.6%
Cc1ccc(NC(=O)Cn2c(=O)n(Cc3ccco3)c(=N)c3c4c(sc32)COC(C)(C)C4)cc1	-16.4%	·
CC(=O)c1ccc(NC(=O)CC2Nc3cccc4cccc(c34)NC2=O)cc1 (configuration not stated)	?	?
Cc1ccc(C(=O)NC(=O)OCCn2c(C)cnc2[N+](=O)[O-])cc1	-16.3%	1.6%
CN1CCN(S(=O)(=O)c2cc(C(F)(F)F)ccc2Cl)CC1	3.9%	-19.4%
COC(=O)C1=NN(c2cccc3ccccc23)C2C(=O)N(c3ccccc3OC)C(=O)C12 (configuration not stated)	-10.8%	-0.2%
CN(C)C(=O)c1ccc(S(=O)(=O)NCc2ccccc2Cl)s1	-6.6%	-5.3%
Cc1ccc(CNS(=O)(=O)c2ccc(F)c(C(=O)Nc3ccc(C)c(F)c3)c2)cc1	?	-25.3%
CC(=O)Nc1ccc(NC(=O)COc2ncnc3ccccc23)cc1	2.9%	i
COc1ccc(NC(=O)Nc2ccc(Cc3ccncc3)cc2)cc1OC	-25.1%	?
COc1ccc(-c2oc3c(c2C(=O)OCCCO)C(OCCCCCO)CCC3)cc1 (configuration not stated)	-0.3%	4.1%
Cc1cc(NC(=O)CS(=O)(=O)c2cn(Cc3cccc(C(F)(F)F)c3)c3ccccc23)no1	1.4%	20.2%
Nc1c(Cl)cc(NC(=O)c2ccccc2C(=O)O)cc1Br	-13.6%	i
CCCN(CC(=O)Nc1ccc(OC)c(OC)c1)CC(=O)Nc1ccc(F)c(F)c1F	-13.8%	i
Cn1cc(S(=O)(=O)c2ccccc2)c(=O)c2cc(F)c(N3CCCC3)cc21	-9.2%	-5.3%
Cc1ccc(C)c(S(=O)(=O)N2CCCC2CNC(=O)C(=O)NCc2ccccn2)c1 (configuration not stated)	-9.3%	-11.8%
COc1cccc(Oc2nc(N)ncc2[N+](=O)[O-])c1	-7.0%	?
Cc1nn(-c2ccc(N3CCCC3)nn2)c(C)c1CCC(=O)Nc1ccccc1	4.4%	0.0%
Cc1nc2cc(OC(=O)N(C)Cc3cccc(-c4ccncc4)c3)ccc2s1	-17.4%	12.2%
CC(=O)Nc1cc(Cl)ccc1OS(=O)(=O)c1ccc(C)cc1	-9.6%	-17.6%
CC12CCC(C(=O)N(c3ccccn3)c3ccccn3)(OC1=O)C2(C)C (configuration not stated)	-9.7%	·
CCOC(=O)C1CCCN(C(=O)c2ccc3c(c2)N(C)C(=O)/C(=C/c2ccccc2Cl)S3)C1 (configuration not stated)	-20.6%	-11.3%
Cc1cc(C)cc(NC(=O)CCc2nc3sc4c(c3c(=O)[nH]2)CCCC4)c1	?	?
CCOC(=O)c1cc(NC(=O)CNCC(c2ccccc2)N(C)C)cc(C(=O)OCC)c1 (configuration not stated)	-18.4%	-3.8%
O=C(CSc1nc2ccccc2c(=O)[nH]1)Nc1ccc([N+](=O)[O-])cc1	20µM*	?
CC(C)(C)c1ccc(CC(=O)N2CCC2(C)C(=O)NS(=O)(=O)c2cccc(C#N)c2)cc1 (configuration not stated)	3.0%	6.4%
COc1cccc(-c2nc(CS(=O)CC(=O)NC3CCCC3)c(C)o2)c1 (configuration not stated)	-12.8%	i
Oc1ccc(N=Nc2n[nH]c(-c3ccccc3)n2)cc1	-12.9%	-13.2%
Cc1cccc(C)c1NC(=O)N1CCN(C2CCCCC2)CC1	-17.6%	-4.4%[1.46 µM]
O=C(Nc1ccccc1)N(c1ccccc1)C1C=CS(=O)(=O)C1 (configuration not stated)	-0.7%	-11.5%
COC(=O)C1C(=O)C2=C(CC1C)NC(=O)CC2c1cccc(C)c1 (configuration not stated)	-8.8%	-15.6%
O=C(CNC(=S)N(Cc1ccccc1F)C1CCCCC1)NCCN1CCOCC1	1.9%	-14.3%

# Later entries
Compound	VACV Venus inh	Vaccinia mCherry
Cc1ccc(-c2nnc(NC(=O)C3=COCCO3)o2)c(C)c1	-12.3%	?
Cc1cc(=O)c2ccc3ccccc3c2[nH]1	-7.7%	i
CCC(CC)C(=O)NCCc1cc2c(C)ccc(C)c2[nH]c1=O	-10.5%	i
CCC(Oc1ccccc1)C(=O)Nc1ccccc1C(=O)N1CCCCC1 (configuration not stated)	-6.8%	i
O=C(NC1(C(F)(F)F)C(=O)Nc2c1c(=O)[nH]c(=O)n2Cc1ccco1)C1CCCCC1 (configuration not stated)	-12.2%	i
COc1ccc(C(=O)NNC(=S)Nc2ccccc2)cc1	-26.4%	-5.0%
COc1ncc(-c2ccc3c(c2)S(=O)(=O)c2cccc(C(=O)NCc4ccco4)c2C3=O)cn1	-8.2%	-10.4%
Cc1ccc(Cl)cc1Nc1sc(C(=O)c2ccc(F)cc2)c(N)c1S(C)(=O)=O	-6.8%	-13.3%
COc1ccccc1N1CCN(CCN2C(=O)CC3(CCCC3)CC2=O)CC1	-16.9%&-15.2%&-10.5%	-12.6%
C[C@@H]1CN([C@@H](C)CO)C(=O)c2c(c3ccccc3n2C)-c2ccccc2CO[C@H]1CN(C)C(=O)C1CC1	-7.2%	-0.6%
CSc1ncnc2c1ncn2CC(=O)C1CCC2C3CCC4=CC(=O)CCC4(C)C3CCC12C (configuration not stated)	?	-12.0%
COc1ccccc1NC(=O)CSc1nnc(CNC(=O)c2ccco2)n1C	-8.6%	i
O=CC(=O)c1ccc(Cl)cc1	-8.1%	-13.6%
CCOC(=O)C[C@H]1c2ccccc2S(=O)(=O)N1Cc1cccc(C(F)(F)F)c1	-20.5%&-17.0%	i
CCN(c1ccccc1)C1SC(=O)N(c2ccccc2)C1=O (configuration not stated)	-18.3%	i
COc1ccccc1C1=NC(c2ccccc2)CN1c1ccccc1 (configuration not stated)	-13.5%	?
CC1(C(=O)Nc2ccc3c(c2)OCCO3)CSCC(=O)N1CCOc1ccccc1 (configuration not stated)	-13.6%	-29.3%
O=C(N/N=C/c1ccccc1OC(=O)c1ccc2c(c1)OCO2)c1ccccc1	-29.0%	i
Cc1cc(C(=O)OCC(=O)NC(C)c2ccccc2)c(C)o1 (configuration not stated)	-8.9%	-6.6%
O=C(Nc1cccnc1)c1ccc(F)cc1	-27.8%	?
O=C(c1cc(S(=O)(=O)N2CCN(c3ccccc3)CC2)ccc1Cl)N1CCCC(C(F)(F)F)C1 (configuration not stated)	-28.9%	-7.5%
Cn1c(=O)c2ncn(CC(=O)NCCOc3ccc(C(C)(C)C)cc3)c2n(C)c1=O	-12.0%	-10.6%
CCOC(=O)c1cc(C)n(CCc2cnc[nH]2)c1C	-15.7%	·
Cc1oc(-c2ccccc2)cc1C(=O)Nc1cccc(/C=C/C(=O)O)c1	-2.3%	-6.6%
CCN(CC)S(=O)(=O)c1cccc(-c2nnc(SCC(N)=O)n2C)c1	-5.4%	i
CCCCN(C(=O)c1[nH]c(C)c(C(C)=O)c1C)c1c(N)n(CCCC)c(=O)[nH]c1=O	-17.0%	i
CCCOC(=O)C1C2C=CC3(CN(c4ccc(Cl)c(F)c4)C(=O)C13)O2 (configuration not stated)	1.1%	-6.8%
C=CCNC(=O)NC(=O)CSc1nc2cc([N+](=O)[O-])ccc2n1-c1cccc(C(F)(F)F)c1	-4.7%	i
CCOc1ccc(NS(=O)(=O)c2ccc(C(=O)NCC(C)(C)N3CCOCC3)cc2)cc1	-10.0%	i
O=C(O)c1n[nH]c2c1CC(C1CCCCC1)CC2 (configuration not stated)	-11.3%	i
O=C(NCc1ccco1)C(=O)c1cn(CC(=O)N2CCCCC2)c2ccccc12	-6.5%	-1.7%
Nn1c(SC/C=C/c2ccccc2)nnc1-c1ccco1	-6.3%	-7.4%
CCN1CCCC1Cn1cnc2c([nH]c3ccc(C)cc32)c1=O (configuration not stated)	-3.3%	-11.1%
COc1ccc(-n2c(-c3ccccc3)cc3c2CCCC3=O)cc1	-25.6%	?
Cc1ccc(OCCCN(C)C)c(Br)c1	-8.6%	·
COc1ccc(C(=O)OCC(=O)NCCN2C(=O)CSC2=O)cc1	-9.8%	i
COc1ccc(CC/C(C)=N\NC(N)=O)cc1	3.2%	-12.9%
COc1ccc(F)cc1S(=O)(=O)n1cc(C)nc1-c1ccccc1	4.9%	-8.4%
COc1ccc(/C=N/Nc2nc(Nc3ccccc3)nc(N3CCCCC3)n2)c(OC)c1	-5.3%	-12.9%
NC(=O)CSc1nnc(-c2ccoc2)o1	-7.2%	-13.6%
COc1ccc(C(=O)OCC(O)COC(=O)c2ccc(OC)cc2)cc1	14.8%	i
COC(=O)c1c(NC(=O)COc2ccc(OC)cc2)sc2c1CCC(C)C2 (configuration not stated)	-12.8%	-19.6%
CCc1noc(C)c1C(=O)Nc1ccc(C)c(S(=O)(=O)N2CCCCCC2)c1	-20.6%	-7.7%
COc1cc(CNc2ncnc3c2ncn3[C@H]2CN(Cc3ccc(C(=O)O)cc3)C[C@@H](CO)O2)cc(OC)c1OC	6.0%	i
CC(=O)Nc1ccc2c(c1)nc(CCNC(=O)c1ccco1)n2C	13.1%	9.8%
O=C1NN(c2ccccc2)C(=O)/C1=C/c1ccc(Sc2cccc3ccccc23)o1	1.4%	i
Cc1ccc(/C=N/NC(=O)c2cc(C)oc2C)cc1	-18.4%	-26.5%
Cc1cccc(NS(=O)(=O)c2cc3c(cc2C)NC(=O)CO3)c1	?	-10.0%
CCOc1ccc(NC(=O)c2ccc(NC(=O)N3CCSc4ncccc43)cc2)cc1	-18.4%	-22.9%
O=C(COc1ccc2oc3c(c2c1)CCCC3)Nc1cccc(Br)c1	-1.9%	0.9%
Cc1ccc(Cn2c3ccccc3c3cn[nH]c(=O)c32)cc1	-25.7%	-17.9%
CCN(C1CCCCC1)S(=O)(=O)c1ccc(S(=O)(=O)N(CC(=O)Nc2ccccc2)C2CC2)cc1	-7.7%	-0.8%
COc1ccc(S(=O)(=O)NCCc2nnc3ccc(SCC(=O)Nc4ccccc4C)nn23)cc1	-5.3%	-10.6%

# Screening data as filed in PubChem BioAssay.
